A1 inh – inhibitors of the anti-apoptotic protein A1, read as caspase activation; MEF A1-2A-BIM cells, Caspase-Glo 3/7 luminescence, 3 h; percent of clofoctol response, vehicle zero; hit rate 0.066% among 330,000; caspase activation, % (no concentration beside the values);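 active = over half of replicate activation scores above 10%, or exactly half above 10 with the replicate mean above 10; inconclusive = replicate mean below 10 yet half the replicates above 10; inactive = over half of replicates below 10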;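 note: wells of about 30 µL received 50 nL stock; many hits fall short of the cut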
Beta cell apopt – beta cell apoptosis inhibition | AID 435005 | INS-1E cytokine-induced death, ATP luminescence, 48 h; percent of positive-control rescue, neutral wells zero | hit rate 0.8% among 300,000 | protection from apoptosis, % (test concentration not listed);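 active = all replicates at 75% or more, or half of them and the mean; inconclusive = half reach 75% but not the mean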;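 note: 0% = cytokine-treated negative control wells and 100% = positive control rescue; higher means more ATP so stronger rescue from cytokine killing; wells of about 40 µL received 100 nL stock; the first replicate is given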
RanGTP-Impb inh – inhibitors of RanGTP-importin-beta interaction, primary screen, biochemical, FRET, CFP-Ran, YFP-importin-beta, homogeneous | cell-free CFP-Ran/YFP-importin-beta FRET ratio | inhibition, % (concentration not given with the values) | hit rate 1.1% among 300,000;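 active = most replicates above 15%; inconclusive = exactly half above 15%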;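 note: 0% = DMSO wells and 100% = Ran loaded with GDP instead of GTP; wells of about 40 µL received 100 nL stock; the first replicate is given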
LANA-H2B inh – blocks KSHV LANA binding to histone H2A/H2B. Q9QR71. inhibition, % (test concentration not listed). AID 2629. hit rate 0.6% among 320,000. cell-free LANA-H2A/H2B peptide, fluorescence polarization; in the data active = inhibition mostly above about 10%, no sharp cut-off; inactive = mostly below about 6.7%;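 note: stock transfer was 7.5 nL into about 10 µL; 0% = median of vehicle wells and 100% = median of positive control wells; one replicate is shown; the record names a cut of 25% in any replicate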
Target sequence (Q9QR71 whole entry, looked up): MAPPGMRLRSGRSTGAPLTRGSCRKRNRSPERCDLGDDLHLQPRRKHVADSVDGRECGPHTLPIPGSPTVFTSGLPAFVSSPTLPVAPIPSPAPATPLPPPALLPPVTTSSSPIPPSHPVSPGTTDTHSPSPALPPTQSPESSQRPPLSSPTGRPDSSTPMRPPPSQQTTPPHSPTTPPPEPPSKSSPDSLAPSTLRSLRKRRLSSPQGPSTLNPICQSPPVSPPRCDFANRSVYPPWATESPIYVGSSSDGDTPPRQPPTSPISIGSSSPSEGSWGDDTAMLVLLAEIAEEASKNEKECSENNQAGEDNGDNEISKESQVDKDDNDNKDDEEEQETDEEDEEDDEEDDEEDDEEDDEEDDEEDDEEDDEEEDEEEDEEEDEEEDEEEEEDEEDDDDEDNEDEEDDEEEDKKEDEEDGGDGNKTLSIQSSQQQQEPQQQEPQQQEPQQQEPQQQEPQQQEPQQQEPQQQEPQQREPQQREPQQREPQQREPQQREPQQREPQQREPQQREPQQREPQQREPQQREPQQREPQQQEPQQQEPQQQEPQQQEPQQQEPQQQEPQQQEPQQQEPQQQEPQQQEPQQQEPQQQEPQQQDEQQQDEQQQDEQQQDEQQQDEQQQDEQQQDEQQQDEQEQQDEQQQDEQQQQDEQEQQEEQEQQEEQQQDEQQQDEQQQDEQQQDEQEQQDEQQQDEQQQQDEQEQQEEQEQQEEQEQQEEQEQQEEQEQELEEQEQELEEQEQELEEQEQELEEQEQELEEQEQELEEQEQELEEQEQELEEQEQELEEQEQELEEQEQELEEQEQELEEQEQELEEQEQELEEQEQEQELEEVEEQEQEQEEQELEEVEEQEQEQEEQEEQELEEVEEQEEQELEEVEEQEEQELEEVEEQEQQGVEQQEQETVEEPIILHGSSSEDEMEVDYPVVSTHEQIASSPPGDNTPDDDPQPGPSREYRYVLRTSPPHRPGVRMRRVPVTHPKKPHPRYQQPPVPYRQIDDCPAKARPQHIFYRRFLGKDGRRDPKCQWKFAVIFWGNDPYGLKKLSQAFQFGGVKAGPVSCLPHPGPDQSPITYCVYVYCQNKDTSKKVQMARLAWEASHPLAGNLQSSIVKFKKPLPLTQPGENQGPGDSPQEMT
UCH37 inh – inhibitors of human deubiquitinating enzyme UCH37 | Q9Y5K5 | purified proteasome/UCH37, Ub-AMC cleavage fluorescence | inhibition, % (test concentration not listed) | hit rate 0.33% among 330,000;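 active = mean of two replicates above 20%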;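 note: 0% = compound-free wells with enzyme and 100% = wells lacking proteasome; stock transfer was 100 nL into about 20 µL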
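Test system – human UCH37 enzyme supplied as purified proteasome complex · Incubation – 30 min preincubation with enzyme, 25 min cleavage at room temperature · Detection – AMC fluorescence from Ub-AMC cleavage, excitation 355 nm, emission 460 nm · Benchmarks – no-proteasome wells (full inhibition) and compound-free wells (no inhibition)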
Beta2AR agonist – human beta-2 adrenergic receptor agonism by FAP; P07550; Am2.2-beta2AR cells, FAP receptor internalization, flow cytometry; reference of the scale not given here; response, % (test concentration not listed); hit rate 0.43% among 340,000;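 active = response above a set limit, near 3 SD of response in nonfluorescent compounds, cut at about 42% in these data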;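 note: stock transfer was 100 nL into about 11 µL; a reference agonist was the positive control; negative values mostly stem from fluorescent compounds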
Calb FLC – affects C. albicans growth with fluconazole. C. albicans CaCi-2 (fluconazole-resistant clinical isolate) + fluconazole, Alamar Blue growth, 48 h. growth inhibition, % (test concentration not listed). hit rate 0.57% among 300,000. AID 1979;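 active = most replicates above 75%; inconclusive = exactly half above 75%; inactive = most below 75%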;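 note: all wells also contain fluconazole at 8 µg/ml as a sub-toxic cotreatment; 0% = median of DMSO wells and 100% = median of geldanamycin control wells; wells of about 8 µL received 7.5 nL stock; the first replicate is given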
T cruzi inh – T. cruzi replication inhibition; T. cruzi beta-gal in NIH3T3, luminescence, 90 h; inhibition, % (concentration not given with the values); hit rate 1.4% among 300,000;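 active = mean inhibition across valid replicates above about 55%, limit read from the data; inconclusive = mean below that limit but half or more replicates reach it; inactive = mean below it, under half of replicates reach it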;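 note: signal also drops with host cell toxicity which is not excluded here; 0% = plate median of DMSO wells and 100% = zero luminescence signal; higher percent means less beta-gal luminescence so fewer parasites; stock transfer was 50 nL into about 50 µL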
Active calls of the source: *; u = inconclusive; x = not tested or not shown.

SMILES	A1 inh	Beta cell apopt	RanGTP-Impb inh	LANA-H2B inh	UCH37 inh	Beta2AR agonist	Calb FLC	T cruzi inh
CC(C)NC(=O)C1CCN(C2CCN(Cc3cn[nH]c3-c3ccccc3)CC2)CC1	-0.4	-2.9	4.9	1.1	4.1	-4.2	-0.3	-12.8
O=c1[nH]c(=O)n(Cc2ccco2)c2c1C(C(F)(F)F)(C(F)(F)F)N=C(CCc1ccccc1)N2	0.9	15.0	-0.2	-1.2	2.0	5.2	13.7	2.2
COc1ccc(-c2csc(NC(=O)C3CCN(c4ncnc5sc(C)c(C)c45)CC3)n2)cc1OC	0.4	112.5*	1.1	0.5	-0.5	27.6	-7.9	56.7*
CCc1ccc2c(CN3CCN(Cc4ccccc4)CC3)cc(=O)oc2c1	1.3	-4.2	2.7	2.2	4.5	-3.2	1.3	38.9
Cc1ccc(S(=O)(=O)NC(=O)Nc2ccccc2)cc1	1.1	-1.2	8.1	-7.2	5.2	3.2	-7.7	-4.1
COc1ccc(OCc2ccc(/C=N\NC(=O)c3sccc3C)o2)cc1	0.7	6.6	x	1.6	x	1.5	-16.3	x
O=C(O)C1=C[C@H](c2csc3ccccc23)C[C@H](OCCCCO)O1	0.8	-1.4	0.1	0.3	4.3	-10.0	6.1	-3.8
CC(C)n1cnc2c(NCc3ccc(S(N)(=O)=O)cc3)nc(NCc3ccc(S(N)(=O)=O)cc3)nc21	0.2	-0.4	-4.4	-4.6	2.6	-5.7	37.4	-21.9
Cc1nnc(C)n1/N=C/c1cccn1C	-0.9	-5.7	5.4	3.7	x	-1.5	-1.3	-19.6
Cc1ccc(N2CC(C(=O)Nc3ccc(S(=O)(=O)Nc4nccs4)cc3)CC2=O)cc1 (stereo unspecified)	0.2	x	-1.3	-2.8	0.8	6.1	0.3	-7.4
COc1ccc(C(=O)Nc2ccc(C)cn2)cc1S(=O)(=O)N1CCCc2ccccc21	-0.1	x	1.2	-0.6	3.3	4.4	0.4	13.7
O=C(NCCCN1CCOCC1)C(=O)N/N=C/c1ccccc1	0.0	-1.5	-2.1	2.8	x	-0.7	12.4	0.0
Clc1ccccc1/C=C/C=N/Nc1nc(N2CCOCC2)nc(N2CCOCC2)n1	-1.2	5.4	-0.4	-0.3	x	16.4	18.8	24.9
Nc1nonc1C(=O)N/N=C\c1cc2c(cc1Cl)OCO2	-1.1	-7.3	x	0.0	x	6.5	4.8	x
CCN(CC)C(=O)CSc1ncnc2sc(-c3ccccc3)cc12	-1.1	0.2	-1.1	1.8	-3.1	-12.3	-36.8	33.0
C=CCn1c(SCC(=O)Nc2ccccc2)nc2scc(-c3cccs3)c2c1=O	0.7	-0.7	-5.2	1.7	2.0	3.7	17.7	28.6
CC(=O)Nc1ccc(S(=O)(=O)NCC(=O)OCC(=O)N2CC(C)OC(C)C2)cc1 (stereo unspecified)	-0.1	-5.8	x	-4.2	-1.1	3.4	x	x
COc1ccc(C(=O)NCc2ccc3c(c2)OCO3)c(OC)c1	0.3	x	u	-3.8	0.3	0.8	-3.0	-1.8
O=Cc1c(Cl)nc2ccccn2c1=O	0.1	1.3	-1.6	-9.7	-6.9	13.1	-7.0	-10.6
O=C(Cc1ccc(Cl)cc1)Nc1cccc(-c2nnc(-c3ccco3)o2)c1	0.4	18.7	-3.3	3.1	0.6	-11.3	-2.0	7.5
COc1ccc(OC)c(C(=O)Nc2c(O)ccc3ccccc23)c1	-0.4	-1.6	7.3	-6.0	3.4	18.0	24.7	2.7
c1ccc(CN=C2NN=C(c3cc4ccccc4o3)CS2)cc1	0.5	-11.3	5.0	1.3	0.4	3.6	-12.1	26.0
c1ccc(N2CCN(c3nnc(Cc4cccnc4)c4ccccc34)CC2)nc1	1.3	3.9	-3.5	3.1	7.3	5.9	3.0	20.7
CN(C(=O)CSc1nc2ccc(Br)cc2c(=O)n1Cc1ccco1)C1CCS(=O)(=O)C1 (stereo unspecified)	2.0	-11.9	-3.5	5.8	0.3	-10.6	3.0	-4.1
CC1=C(C)C(OCCCl)N(c2cc(O)c(Cl)cc2F)C1=O (stereo unspecified)	-0.5	-0.9	1.5	-1.7	3.1	0.3	4.3	-4.4
CN1CCN(C(=O)c2cc(COc3ccccc3)on2)[C@@H](c2ccccc2)C1	-4.1	x	3.8	3.2	3.3	6.3	-2.1	10.3
Cc1ccc(NCc2ccc(C)s2)cc1	0.1	-21.7	2.5	-2.6	x	x	1.1	71.4*
CCOC(=O)C1=C(COC(=O)CNC(=O)c2cccc(C)c2)NC(=O)NC1C (stereo unspecified)	0.1	-2.3	2.0	-1.5	1.9	4.0	-1.3	-8.5
CC1SCC(=O)N(CC(=O)Nc2ccc3c(c2)OCO3)C1=O (stereo unspecified)	0.1	-2.9	1.6	-3.4	4.3	-4.2	21.1	-15.9
O=C(CSc1ncnc2ccccc12)Nc1ccc2c(c1)OCO2	0.0	1.8	-0.5	0.2	8.2	-11.0	7.9	0.3
CCCCc1ccc(NC(=S)Nc2cccnc2)cc1	2.7	x	7.3	-0.3	0.6	-88.3	12.9	1.7
Cc1ccc(NC(=O)OCc2cn(-c3ccc(Cl)cc3)nn2)cc1	0.2	-1.5	3.6	-0.9	2.0	-1.8	3.2	20.1
CNc1nc(Cl)c(SC)c(NCc2ccc(F)cc2)n1	1.4	-1.4	-1.8	-5.5	2.7	2.8	11.6	17.9
CCOc1ccc(C(=O)N2CCc3cc(OC)c(OC)cc3C2)cc1OCC	0.1	-3.2	2.8	5.1	4.0	-2.4	-5.1	7.0
CCNc1nc(CC)nc2c1oc1ccccc12	0.3	-1.7	1.4	-1.0	0.1	-8.2	10.5	6.7
Cc1ccc(C)c(/C=C/C(=O)c2ccccc(=O)c2O)c1	0.7	48.6	-1.9	2.5	0.2	8.9	98.2*	58.4*
CCCCn1c(N)c(N(CCOC)C(=O)CSc2nnc(-c3ccc(C(C)(C)C)cc3)n2N)c(=O)[nH]c1=O	1.5	-1.4	-1.9	-9.5	4.2	6.5	-2.8	-11.2
OCCN1CCN(C(=S)NCCc2ccccc2)CC1	0.6	x	-1.5	3.0	-2.7	3.6	-0.8	-3.9
CSC1=NC(C)(C)C=C(/C=C/c2c(Cl)cccc2Cl)N1	0.7	-16.3	-1.9	-1.0	3.0	-0.6	-2.6	23.2
Cc1onc(NC(=O)NC(=O)c2c(F)cccc2Cl)c1Br	0.3	5.8	u	-6.2	1.9	-1.3	-8.7	0.6
CN(C1CCCCC1)S(=O)(=O)c1cccc(C#N)c1	1.0	x	u	-0.3	7.0	-1.4	4.7	-9.6
CNS(=O)(=O)c1ccc(CCC(=O)N2CCN(c3ccccc3OC)CC2)cc1	0.1	1.5	-0.4	8.0	2.7	-3.3	8.5	6.2
Cc1nc(N2CCN(C)CC2)c2sc(=S)n(C)c2n1	0.0	1.4	1.5	-1.1	11.8	-16.3	5.8	18.3
O=C(O)Cc1coc(-c2ccc(F)cc2)n1	1.6	-6.3	-0.7	4.7	5.1	-0.5	-9.5	-7.2
Cc1cc(C)c2nc(NNC(=O)c3cc(=O)c4ccccc4o3)sc2c1	1.1	4.4	-2.1	-2.1	2.9	3.0	-19.1	-11.7
COc1ccc(CCNC(=O)c2ccc(NS(=O)(=O)c3ccc4[nH]c(=O)[nH]c4c3)cc2)cc1OC	0.8	0.3	-2.0	-2.8	-0.3	-11.7	6.5	2.0
CCOCCCNC(=O)C(c1ccc(Cl)cc1)N(Cc1cccs1)C(=O)CNC(C)=O (stereo unspecified)	-0.2	-5.6	9.9	-0.8	4.4	1.0	-10.6	-7.2
COCCn1nnnc1C(c1cccc(OC)c1OC)N1CCN(C2CCCCC2)CC1 (stereo unspecified)	0.1	0.5	u	0.4	2.5	-13.0	-5.7	3.6
CC(NC(=O)Cc1ccc(S(=O)(=O)N2CCCCC2)cc1)c1ccccc1 (stereo unspecified)	0.8	-3.3	x	-5.4	x	4.8	x	x
O=C(c1ccc(F)cc1)c1ccc(CN2C(=O)c3ccccc3C2=O)o1	0.4	-1.0	1.7	3.3	1.0	-2.6	13.8	5.5
The results go on:
SMILES	A1 inh	Beta cell apopt	RanGTP-Impb inh	LANA-H2B inh	UCH37 inh	Beta2AR agonist	Calb FLC	T cruzi inh
COc1cccc(CN2CCN(C(=O)c3ccco3)CC2)c1OC	0.1	3.4	2.8	-0.5	1.6	0.5	-10.0	-20.0
Cc1ccc(NC(=O)C2CCN(C(=O)c3ccc(Cl)cc3)CC2)nc1	-0.8	-6.8	-1.2	x	-0.6	10.8	-6.0	0.6
c1ccc(OCc2nn3c(Cn4nnc5ccccc54)nnc3s2)cc1	-1.4	-4.0	4.9	1.7	2.3	0.4	-11.0	-9.8
Cc1oc(-c2ccccc2)cc1C(=O)Nc1cccc(C(=O)O)c1	0.5	-8.8	u	-3.0	4.3	-11.6	-4.6	-15.6
CC(/C=N\N1CCN(Cc2ccc(C)cc2)CC1)=C\c1ccccc1	0.4	-4.0	1.1	-3.4	x	1.2	-23.4	-1.0
CC(=O)Nc1ccc(S(=O)(=O)N2CCN(C34CC5CC(CC(C5)C3)C4)CC2)cc1	-0.5	-0.3	-1.9	2.4	4.5	-4.2	7.5	-4.1
N#Cc1cc2c(nc1SCC(=O)Nc1sc3c(c1C#N)CCC3)CCC2	-0.7	1.4	-5.0	-0.5	-4.2	-1.2	8.4	8.9
COC(=O)c1c(-c2cccc3ccccc23)csc1NC(=O)Cc1ccc(OC)c(OC)c1	-0.9	24.2	-0.6	0.7	1.3	7.2	-7.1	57.3*
O=C(c1cccnc1)C1Cc2ccccc2C1=O (stereo unspecified)	0.9	-5.7	u	-4.7	x	-5.0	x	-1.2
CCOC(=O)CN(c1cccc(C(C)=O)c1)S(C)(=O)=O	-0.4	-0.9	3.2	6.0	0.7	1.7	21.5	-8.6
CC(C/C=N/NC(=O)COc1cc(Cl)ccc1Cl)c1ccccc1 (stereo unspecified)	0.8	-7.0	-0.8	-1.1	x	1.0	-30.2	-21.7
c1ccc2c(c1)nc(Nc1ccc3c(c1)OCO3)c1nnnn12	-1.3	6.8	-0.4	1.3	-14.9	-5.2	10.2	48.4
CCOC(=O)CN1CC23C=CC(O2)C(C(=O)NCCc2ccccc2)C3C1=O (stereo unspecified)	0.9	-8.5	-4.4	-0.8	-0.3	9.3	-2.1	-8.4
COc1cc(C(=O)NNC(=O)COc2ccc(Cl)cc2)ccc1OCC(=O)N1CCOCC1	-1.5	-2.9	x	-3.1	1.4	3.7	x	x
Cc1ccc(Nc2cc(C)nc(NCc3ccccc3)n2)cc1	0.3	105.1*	2.9	-3.2	6.4	39.4	7.7	61.2*
O=C(N/C(=C/c1cccnc1)C(=O)N1CCOCC1)c1ccccc1Br	0.2	1.8	-0.5	-2.4	2.1	-4.2	-2.7	-5.5
Cc1ccc(NC(=O)CN2C(=O)NC(C)(c3ccc4c(c3)OCO4)C2=O)cc1 (stereo unspecified)	0.0	0.6	x	-8.4	3.4	-3.8	x	x
